Marburg entry inh = blocks Marburg virus binding to or entry into cells. AID 540276. Potency, µM (highest dose often 37.8 µM), without a hit: at the top dose activity change, negative = inhibition, actives largely listed as inhibitors. 300,000 compounds, 1.8% hits. Marburg virus pseudotyped entry inhibition, cell reporter; control for the full effect not named in the record; about a third of the inactives were read at about 46 µM; active = well fitted inhibition curve with a large enough effect; inconclusive = small, poorly fitted or top-dose-only effect, or effect the other way; inactive = flat fitted curve, though single readings scatter; tested in HEK293 cells; about a fifth of its hits are not listed in these tables; further: on the % scale 0 is the no-effect control and ±100 the full control effect; luciferase read-out
StopGo reporter = FMDV 2A StopGo reporter, luciferase signal; human cells with a luciferase reporter of 2A StopGo recoding; control for the full effect not named in the record; Potency, µM (doses to about 57.9 µM), inactives show at the top dose signal change, negative = less light; 410,000 compounds, 1.2% hits; AID 1159524; active = well fitted falling curve with a large enough effect; inconclusive = small, poorly fitted or top-dose-only effect; inactive = no such curve, though single readings can be large or run the other way; tested in HEK293T cells; further: on the % scale 0 is the no-effect control and ±100 the full control effect; nearly all actives have a fitted effect of over 45% in size; luciferase light after 4 h
SARS PLpro yeast = SARS-CoV PLP inhibition in yeast. AID 485353. Potency, µM (series often up to 32.9 µM), for the others: at the top dose activity, positive = growth rescue. 330,000 compounds, 0.19% hits. S. cerevisiae expressing SARS-CoV PLpro, growth rescue; control for the full effect not named in the record; further: 0% is about no effect; nearly all actives have a fitted effect of over 55% in size; growth read by luminescence after 48 h
RE007 growth inh = less growth of the S. pombe RE007 Vpr strain. S. pombe RE007 Vpr strain, BacTiter-Glo ATP luminescence, 24 h; control for the full effect not named in the record. Potency, µM (highest dose often 92.2 µM), for the others: at the top dose activity change, negative = less growth. 360,000 compounds, 0.21% hits; active = well fitted falling curve with a large enough effect; inconclusive = small, poorly fitted or top-dose-only effect; inactive = no such curve, though single readings can be large or run the other way;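 further: on the % scale 0 is the no-effect control and ±100 the full control effect; nearly all actives have a fitted effect of over 50% in size; the assay follows cell death caused by Vpr and the record does not say whether a fall means rescue or toxicity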
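Fission yeast RE007 carrying one integrated HIV-1 vpr copy, seeded at OD 0.01 in PMG+AL medium with 23 nL pinned compound. Grown 24 h at 30 degrees; viability read by BacTiter-Glo luminescence after 5 min.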
NS1 function inh = blocks influenza NS1 protein function | S. cerevisiae slowed by influenza A NS1, growth recovery by OD600 | Potency, µM (series often up to 46.1 µM), inactives show at the highest dose activity, positive = more growth | 270,000 compounds, 0.4% hits | AID 2326; further: actives are rising curves; nearly all actives have a fitted effect of over 50% in size
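S. cerevisiae expressing influenza A NS1, grown in glucose, washed, then diluted 1:100 into pH 6.0 -URA galactose medium with 23 nl compound. Growth recovery read as OD600; NS1-free strain serves as control.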
Cruzain noTriton = cruzain (T. cruzi) inhibition without detergent | 200,000 compounds, 2.3% hits | P25779 | AID 1476 | purified cruzain, Z-FR-AMC fluorescence, no detergent | Potency, µM, for inactives: max response, negative = inhibition, most hits filed as inhibitors; active means well fitted curve in the direction sought with a large enough effect; inconclusive means small, poorly fitted or top-dose-only effect, or another doubt; inactive means no such curve, though single readings can be large; an effect the other way counts as inactive or inconclusive;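 further: plate controls were enzyme without inhibitor for no effect and buffer without enzyme for full effect; nearly all actives have a fitted effect of over 40% in size; top concentration of the series not given in the record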
Target sequence (P25779 123-467 limits assumed): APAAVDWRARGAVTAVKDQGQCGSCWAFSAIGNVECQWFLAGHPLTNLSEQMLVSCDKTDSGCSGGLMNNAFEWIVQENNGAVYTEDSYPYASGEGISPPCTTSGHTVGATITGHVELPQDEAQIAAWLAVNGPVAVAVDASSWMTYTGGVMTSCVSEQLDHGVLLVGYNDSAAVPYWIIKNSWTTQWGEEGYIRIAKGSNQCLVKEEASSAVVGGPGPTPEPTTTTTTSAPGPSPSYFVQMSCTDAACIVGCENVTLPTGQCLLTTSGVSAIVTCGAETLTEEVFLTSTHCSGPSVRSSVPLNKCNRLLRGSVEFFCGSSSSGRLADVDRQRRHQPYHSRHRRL
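Detergent-free condition (0.00005% Triton X-100) in acetate buffer pH 5.5 with DTT. 1.5 nM enzyme and compound were pre-mixed 15 min, then 2 uM Z-FR-AMC substrate added; reaction progress from fluorescence change between first and third reads (60 s).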
LASV entry inh = inhibitors of Lassa virus binding or cell entry. Lassa virus pseudotype entry inhibition, cell reporter; control for the full effect not named in the record. Potency, µM (highest dose often 37.9 µM), inactives show at the highest dose activity change, negative = inhibition, usual class: inhibitors. 300,000 compounds, 1.2% hits; active means well fitted inhibition curve with a large enough effect; inconclusive means small, poorly fitted or top-dose-only effect, or effect the other way; inactive means flat fitted curve, though single readings scatter; tested in HEK293 cells; further: on the % scale 0 is the no-effect control and ±100 the full control effect; nearly all actives have a fitted effect of over 50% in size; luciferase read-out
Cruzain inh Det = inhibitors of Trypanosoma cruzi cruzain with detergent. P25779. purified cruzain, Z-FR-AMC fluorescence, 0.01% Triton. Potency, µM, for the others: max response, negative = inhibition, actives largely listed as inhibitors. 200,000 compounds, 0.43% hits. AID 1478; active means well fitted curve in the direction sought with a large enough effect; inconclusive means small, poorly fitted or top-dose-only effect, or another doubt; inactive means no such curve, though single readings can be large; an effect the other way counts as inactive or inconclusive;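 further: plate controls were neutral wells for no effect and buffer without enzyme for full effect; nearly all actives have a fitted effect of over 40% in size; top concentration of the series not given in the record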
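Cruzain (1.5 nM) preincubated 15 min at RT with compound in 100 mM sodium acetate pH 5.5, 5 mM DTT, 0.01% Triton X-100. Reaction started with 2 uM Z-FR-AMC; AMC fluorescence (ex 360/em 450 nm) change over 60 s gave rate.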
Numbers without * were called inactive; ? = inconclusive; · = not tested or not shown; [ ] = dose if it differs, or a comment. Unless noted, the call rests on the fitted dose curve; in most records, active means well fitted rising curve with a large enough effect; inconclusive means small, poorly fitted or top-dose-only effect; inactive means no such curve, though single readings can be large or run the other way. Potency means the concentration at half of the fitted maximal effect.

entry | Molecule | Marburg entry inh | StopGo reporter | SARS PLpro yeast | RE007 growth inh | NS1 function inh | Cruzain noTriton | LASV entry inh | Cruzain inh Det
1 | CCOc1ccc(-c2ccc(SCC(=O)NCC3CCCO3)nn2)cc1 (stereo unspecified) | -23%[46.1 µM] | 7% | 2% | -2% | · | · | -4% | ·
2 | COC(=O)c1cccc(N(C(=O)CNC(=O)c2ccco2)C(C(=O)NC2CCCC2)c2ccco2)c1 (stereo unspecified) | -4% | -10% | 7% | 24% | -3% | -7% | -23% | 1.2%
3 | CCOc1ccc(-n2c(Cc3cc(=O)[nH]c(=O)[nH]3)nnc2SCC(=O)Nc2nnc(C)s2)cc1 | · | -25% | 0% | ? | 12% | · | · | ·
4 | COc1ccc(OC)c(S(=O)(=O)Nc2cc(OC)c(Cl)cc2OC)c1 | ? | 25% | · | 5% | 7% | -3% | -11% | -3.8%
5 | Cc1ccc(N2CC(c3nnc(NC(=O)c4ccco4)s3)CC2=O)cc1C (stereo unspecified) | 14%[46.1 µM] | 14% | · | · | · | -1% | 15%[46.1 µM] | -3.3%
6 | COCCCNC(=O)CN(Cc1ccc(Cl)cc1)S(C)(=O)=O | 5% | · | 3% | 5% | -1% | 3% | -4% | 2.2%
7 | CC(=O)Oc1ccc(/C=C2/SC(=S)N(Cc3ccccc3)C2=O)cc1 | 22%[46.1 µM] | -13% | -6% | 12% | -2% | · | -3% | ·
8 | O=C(C/C=N\OCc1ccc([N+](=O)[O-])cc1)Nc1ccccc1 | -6%[46.1 µM] | -16% | -2% | -16% | -7% | · | 14% | ·
9 | N#CCNC(=O)c1nn2c(C(F)(F)F)cc(-c3ccccc3)nc2c1Br | ? | 3% | 1% | -13% | 1% | · | ? | ·
10 | Cc1nn(Cc2ccc(Cl)cc2)c(C)c1NC(=O)C(c1ccccc1)c1ccccc1 | ? | -10% | -12% | 3% | 20% | 3% | 1% | -6.2%
11 | O=C1Cc2cc(S(=O)(=O)Nc3ccc(N4CCOCC4)cc3)ccc2N1 | ? | 7% | 3% | 12% | · | · | ? | ·
12 | COc1ccccc1NC(=O)CC(NCc1ccccc1)C(=O)O (stereo unspecified) | 2% | -8% | 0% | 48% | 8% | -2% | 6% | 0.9%
13 | Cc1ccc(S(=O)(=O)N2CCCN(S(=O)(=O)c3ccc(C)c(C)c3)CC2)cc1C | ? | -26% | 3% | 1% | -1% | -7% | -8% | 3.8%
14 | Cc1ccc(C(=O)NC(=S)Nc2cc(C(F)(F)F)ccc2Cl)cc1 | ? | -9% | ? | 0% | -8% | -10% | -17% | 2.1%
15 | C/C(CC(=O)Nc1ccc(C)c(Cl)c1)=N\NC(=O)Cc1cccs1 | 17%[46.1 µM] | 9% | 1% | -22% | -40% | · | 3%[46.1 µM] | ·
16 | Cc1ccc(NCc2cccnc2)cc1 | 6% | -4% | -3% | 3% | 0% | 19% | 2% | -3.9%
17 | CCN1C(=O)S/C(=C\c2ccc(N3CCOCC3)cc2C)C1=O | ? | -8% | -12% | 9% | -6% | 9% | ? | -12%
18 | O=[N+]([O-])c1cc(-c2ccn[nH]2)ccc1Cl | 2%[46.1 µM] | 9% | -5% | -1% | -4% | · | 25% | ·
19 | COc1ccc(C(=O)N(C)CCCC2CCCC2)cc1OC1CCN(C(C)C)CC1 | · | 2% | -1% | -4% | 15% | · | · | ·
20 | CC(=O)c1ccc(OCC(=O)Nc2cccc(S(=O)(=O)N3CCCC3)c2)cc1 | ? | ? | -2% | -4% | · | · | ? | ·
21 | COC(=O)CN1C(=O)N/C(=C/c2cc(OC)c(OC)cc2C)C1=O | · | -13% | 0% | 4% | -2% | · | · | ·
22 | COc1cccc(C2=NOC(C(=O)NCc3ccccn3)C2)c1 (stereo unspecified) | -4% | 21% | ? | 1% | -7% | -1% | 11% | -3.0%
23 | Cc1ccc(OC(=O)c2ccc([N+](=O)[O-])cc2Cl)cn1 | · | -6% | 2% | ? | -1% | · | · | ·
24 | CC(C)CC(=O)NC(NC(=S)Nc1sc2c(c1C#N)CCCC2)C(Cl)(Cl)Cl (stereo unspecified) | ? | ? | -2% | -3% | 7.1µM* | ? | -1% | -8.7%
25 | Cc1cccc(C(=O)Nc2c(C(=O)N3CCN(c4ccc(F)cc4)CC3)oc3ccccc23)c1 | · | -29% | · | · | · | ? | -10%[46.1 µM] | -3.6%
26 | CCCCCC(C)n1[nH]c(=O)c2c(C)cc(C)nc21 (stereo unspecified) | · | -25% | -26% | 4% | -82% | -15% | · | 1.0%
27 | C=CCn1c(SC(F)F)nc2scc(-c3ccco3)c2c1=O | ? | -1% | -8% | -14% | -25% | · | ? | ·
28 | Cc1onc(-c2c(Cl)cccc2Cl)c1C(=O)Nc1ccc2c(c1)OCCO2 | -41%[46.1 µM] | -21% | 1% | 3% | -4% | -21% | ? | ?
29 | NC(=O)Cn1ccc(O)c(Cc2ccc(Cl)cc2Cl)c1=O | · | -5% | -3% | 17% | -1% | · | · | ·
30 | O=C(NC1CCCCC1)C(c1ccc(O)cc1)N(C(=O)c1cnccn1)c1cccc(F)c1 (stereo unspecified) | -6%[46.1 µM] | 11% | 5% | 2% | -5% | · | ? | ·
31 | COCCCn1c(=N)c(C(=O)NCC2CCCO2)cc2c(=O)n3cccc(C)c3nc21 (stereo unspecified) | ? | -25% | 10% | · | -4% | ? | 0% | 25µM*
32 | O=C(Nc1ccc(O)c2c(=O)cc(-c3ccccc3Cl)oc12)c1ccc(Cl)cc1Cl | · | -20% | 0% | -11% | 0% | · | · | ·
33 | Cc1occc1C(=O)NNC(=O)c1ccc(F)cc1 | 24% | 0% | -4% | 18% | 4% | 1% | 34% | 5.1%
34 | O=C(NCc1ccccc1)C(c1ccncc1)N(C(=O)c1ccccn1)c1ccccc1 (stereo unspecified) | 18%[46.1 µM] | 21% | 2% | 2% | 1% | · | ? | ·
35 | O=C(NCc1ccc2c(c1)OCO2)c1ccc(CN2CCc3ccccc3C2)cc1 | -2% | -13% | -4% | -3% | 14% | -2% | -2% | 2.5%
36 | Cc1ccc(NC(=O)C2CCCN(S(=O)(=O)c3c(C)n[nH]c3C)C2)cc1C (stereo unspecified) | -14%[46.1 µM] | -12% | · | · | · | 8% | -14%[46.1 µM] | -2.5%
37 | COc1ccc(C2CC(c3ccccc3)=NN2C(=S)Nc2ccccc2)cc1 (stereo unspecified) | -10% | -7% | 3% | 20% | · | · | 0% | ·
38 | O=C(O)c1ccc(Nc2nc(-c3ccccc3)c3cc(Br)ccc3n2)cc1 | · | -15% | · | · | · | 27% | 0%[46.1 µM] | -1.8%
39 | Cc1ccc(S(=O)(=O)N(C)C)cc1NC(=O)COC(=O)CSc1ccccc1 | 1% | -15% | 2% | 8% | · | · | 8% | ·
40 | CCCCN(C(=S)SC)C1CCS(=O)(=O)C1 (stereo unspecified) | 6%[46.1 µM] | -12% | -1% | 10% | 9% | · | 0% | ·
41 | O=C(CCCn1c(=O)c2sccc2n(Cc2ccc(F)cc2)c1=O)NCc1ccco1 | ? | 0% | -5% | 2% | -5% | 3% | ? | 3.0%
42 | O=C(NCC(c1ccco1)N1CCN(c2ccccc2)CC1)c1cccs1 (stereo unspecified) | -3% | -1% | -1% | -3% | · | · | 7% | ·
43 | O=S(=O)(c1cccs1)N1CCN(c2ccccc2)CC1 | -1%[46.1 µM] | -14% | -3% | 2% | -1% | · | -17%[46.1 µM] | ·
44 | CC1=C(C)C(OCCBr)N(c2cc(O)c(Cl)cc2F)C1=O (stereo unspecified) | -2%[46.1 µM] | 0% | 0% | 7% | 12% | · | 13%[46.1 µM] | ·
45 | C=CCN(CC=C)C(=O)C[n+]1ccc(C(N)=O)cc1 | · | -9% | 0% | 1% | 0% | · | · | ·
46 | Cc1ccc(CN2CCCN(Cc3ccc(Cl)cc3)S2(=O)=O)cc1 | 0%[46.1 µM] | -5% | -1% | 9% | -4% | · | 16%[46.1 µM] | ·
47 | Cn1c(CCN2CCN(c3ccccn3)CC2)nc2cc(NS(=O)(=O)c3ccc(Cl)cc3)ccc21 | · | -10% | 0% | -6% | -31% | · | · | ·
48 | CCn1c(COc2cc(C)cc(C)c2)nnc1SCC(=O)N1CCN(c2ccccc2)CC1 | -4% | ? | 0% | 0% | 2% | ? | -19% | 2.1%
49 | CCn1cc(/C=C(\NC(=O)c2ccc(OC)c(OC)c2)C(=O)N2CCOCC2)c2ccccc21 | · | -5% | -2% | -8% | -5% | · | · | ·
50 | COc1ccc(C(=O)NCCSCc2ccccc2C)cc1 | 4% | 21% | -6% | -25% | -130% | -7% | -19% | 0.7%
51 | COc1cccc(C(C(=O)NC2CCCCC2)N(C(=O)c2ccco2)c2ccccc2OC)c1 (stereo unspecified) | ? | 30%[activator] | -1% | -16% | 0% | · | ? | ·
52 | CC(=Nc1ccccc1)C1=C(O)C(CC(C)C)NC1=O (stereo unspecified) | 4% | 22% | · | 12% | · | · | 17% | ·
53 | O=C(c1cc2c(s1)-c1ccccc1OC2)N1CCN(c2ccc(F)cc2)CC1 | -22%[46.1 µM] | -30% | · | · | · | 10% | · | -5.0%
54 | O=C(C1CC12CCCC2)N1CCC(CO)(Cc2ccccc2Cl)CC1 (stereo unspecified) | · | -20% | 0% | -8% | 0% | · | · | ·
55 | COc1cccc(C2NC(=O)c3n[nH]c(-c4cccs4)c32)c1 (stereo unspecified) | -1%[46.1 µM] | 0% | · | · | · | -6% | -2%[46.1 µM] | -5.6%
56 | O=C(Nc1ccc(Cl)cc1)Nc1ccc(N2CCOCC2)cc1 | ? | 41%[activator] | 3% | -15% | -7% | -10% | 6% | 3.4%
57 | CC1CCc2sc3c(c2C1)c(=O)n(CC(=O)O)c(=O)n3Cc1ccc(Cl)cc1 (stereo unspecified) | · | -7% | 1% | 33% | 4% | · | · | ·
58 | Cc1cccc(N2CCN(C(=O)c3cc(S(=O)(=O)N4CCOCC4)cn3C)CC2C)c1 (stereo unspecified) | · | 0% | -13% | 2% | -12% | · | · | ·

Source: PubChem BioAssay
